Compound activity from PubChem.
NPYLR7 agonist = agonists of mosquito NPYLR7 receptor, primary screen, cell-based, Aedes aegypti, calcium fluorescence, mosquito biting behavior. 0.15% of 270,000 active. activation, % at 10 µM. Aedes aegypti neuropeptide Y-like receptor 7 (NPYLR7). HEK293T NPYLR7/Galpha15, GCaMP6s calcium fluorescence; in the data active means activation above about 40%;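 further: 0% = vehicle and 100% = reference agonist at the receptor; some compounds past the cut are filed as inactive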
NPYLR7 agonist max-min = second read-out of NPYLR7 agonist, no call of its own (marks repeat the call); activation, %; measured here: Max-Min RFU normalised activation; some inactives read as strong as hits;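 span of the calcium signal over five minutes; 0% = vehicle and 100% = native peptide agonist; compound fluorescence can raise it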
An asterisk follows results filed as active; & = joins results of further samples. Only part of the results is shown; the hit share may differ from the screen's.

SMILES	NPYLR7 agonist	NPYLR7 agonist max-min
COc1cccc(-n2cc(CN(C)C(=O)c3cc(C(C)C)on3)cn2)c1	9.1	6.8
Cc1cc(C)n2c(C(=O)N(C)C3Cc4ccccc4C3)nnc2n1	0.0	-0.9
Cc1ccccc1NC(=O)c1cn(C)c2c(=O)n(-c3ccccc3)c(=O)[nH]c12	-1.4	-3.5
CC1(C)C2CCC(C(=O)O)(C2)C1O (configuration not stated)	1.4	2.9
C=CCn1c(SCC(=O)Nc2cc(OC)ccc2OC)nc2sc3c(c2c1=O)CCCC3	-1.1	-6.9
N#CCCn1cc(C=NNC(N)=S)c(-c2cccs2)n1	-0.8	54.7
COc1ccc(CCN(C)C(=O)c2nn(-c3cccc(C(F)(F)F)c3)c(C)cc2=O)cc1OC	1.9	2.1
Cc1ccccc1C1SC(C)C(=O)N1CCO (configuration not stated)	4.7	-0.4
CCCc1cc(C(=O)N2C[C@H]3CC=C(C)C[C@H]3C2)ccn1	-3.4	-2.8
CCc1cc(C)c(C(=O)O)o1	2.3	-2.3
Cc1c(C(=O)NCc2ccncc2)cnc2c(-c3cccc(C(F)(F)F)c3)cnn12	13.9	10.4
N#CCSc1nc2ccccc2c(=O)n1Nc1ccccc1	6.0	5.0
COc1ccccc1-c1cc(C(=O)N2CCOCC2)n2nc(-c3ccccc3)cc2n1	16.6	10.0
CCn1c(=O)cc(N2CCC3(CC2)OCCO3)[nH]c1=O	1.1	6.6
COc1ccccc1NC(=O)CSc1nc2c3ccccc3ncn2n1	0.3	6.1
Cc1nc(CN)oc1-c1ccc(Cl)cc1	-2.9	14.7
COCCN(Cc1ccc(C(O)(c2cccc(F)c2)c2cccc(F)c2)o1)Cc1cccs1	-9.8	-1.9
CCOC(=O)CCC(=O)Nc1nc2ccc(Cl)cc2s1	0.2	2.7
Fc1ccc(C2CC(c3ccccc3)=Nc3ncnn32)cc1 (configuration not stated)	3.2&7.9	1.3&8.4
CCSc1nc2c([nH]c3ccccc32)c(=O)n1-c1ccc(OC)cc1	0.3	45.6
CN(C)c1ccc(-c2nnnn2[C@H]2CO[C@H]3[C@@H]2OC[C@H]3OC(=O)Nc2cccc(C(F)(F)F)c2)cc1	-9.0	-14.3
Cc1ccc(CS(=O)(=O)N2CCNC(C(=O)O)C2)cc1 (configuration not stated)	-0.6	-4.5
O=c1[nH]c(-c2cccc(Cl)c2)nc2sc3c(c12)CCCC3	0.5&2.0	0.3&7.6
CC(C)(C)c1ccc(CCC(=O)N2CCN(c3ncccn3)CC2)cc1	2.1	-1.3
COCCN(CCOC)C(=O)c1nn(-c2ccccc2C)c(=O)cc1OC	4.9	2.3
CCCc1cc(=O)n(CC(=O)Nc2c(C)cccc2C)cn1	3.8	-3.1
CC(C)(C)NC(=O)[C@@H]1CN(Cc2cccnc2)CCN1C[C@@H](O)C[C@@H](Cc1ccccc1)C(=O)N[C@H]1c2ccccc2C[C@H]1O	-6.8	-7.1
O=C(NC1CCC(n2cnnc2)CC1)c1[nH]cnc1-c1ccccc1 (configuration not stated)	7.2	5.7
CC1(Cc2ccc(C(F)(F)F)o2)C(=O)Nc2ccccc21 (configuration not stated)	4.0	8.4
COCCn1c2c([n+](Cc3cnccn3)c1C)C(=O)c1ccccc1C2=O	-11.3	-16.8

Some of these compounds in order of formula weight, low to high.
SMILES	NPYLR7 agonist	NPYLR7 agonist max-min
CC1(Cc2ccc(C(F)(F)F)o2)C(=O)Nc2ccccc21 (configuration not stated)	4.0	8.4
Cc1cc(C)n2c(C(=O)N(C)C3Cc4ccccc4C3)nnc2n1	0.0	-0.9
COCCn1c2c([n+](Cc3cnccn3)c1C)C(=O)c1ccccc1C2=O	-11.3	-16.8

Additional entries follow.
SMILES	NPYLR7 agonist	NPYLR7 agonist max-min
CC(C)NC(=O)CN(C)C(=O)c1c(Br)c2ccccc2n1C	5.6	5.0
CCn1c(C2CCCNC2)nn(CCSc2ccccc2)c1=O (configuration not stated)	-5.2	-8.3
CC(C)CN(C(=O)c1ccc(-c2cccs2)[nH]c1=O)C1CCCCC1	-1.9	-0.7
NCC1CN(c2nccc(C3CCCC3)n2)CCO1 (configuration not stated)	1.7	-15.3
CCCCSc1nc2c(cnn2CCO)c(=O)[nH]1	-1.5	-2.1
COc1ccc(S(=O)(=O)Oc2cccc(CNCC3CCCO3)c2)cc1 (configuration not stated)	20.9	19.5
Cc1ccc(C(=O)NCc2ccc3c(c2)OCO3)cc1NC(=O)C1CC1	-2.4	-6.5
CC(C)(C)c1cc(CNC(=O)CCc2nc3ccc(F)cc3[nH]2)[nH]n1	0.7	0.0
COCCN1CC(C)(C)CN(C(=O)c2ccc(Cl)cc2)CC1=O	-9.4	0.3
CCN(CC1CCCO1)C(=O)CN(C)C(=O)c1cccs1 (configuration not stated)	1.2	0.7
O=C(Nc1ccc(F)c(F)c1)NC(Cc1ccccc1)C(=O)Nc1nnc(-c2ccc3c(c2)OCO3)s1 (configuration not stated)	14.0	16.2
Cc1c(C(=O)Nc2cccc(S(=O)(=O)N3CCOCC3)c2)sc2nc3n(c(=O)c12)CCC3	-3.7	-4.5
COc1ccc(-n2nc(C(=O)N3CCN(C)CC3)c(=O)n(Cc3cccc(OC)c3)c2=O)cc1	3.7	15.2
CC(=O)N[C@@H](CCC(N)=O)c1nc(CC(C)C)nn1-c1cc(C)ccc1C	19.1	13.8
CNC(=O)CN(C)Cc1nc(-c2ccc(OC)c3ccccc23)oc1C	-4.1	-12.3
CC(CC(=O)NC12CC3CC(CC(C3)C1)C2)=NNC(N)=O	6.0	5.1
CC(OC(=O)C1=COCCO1)C(=O)NC1(C#N)CCCCC1 (configuration not stated)	0.4	48.2
CCCCCc1ccc(C(=O)Nc2ccc(N3CCCCC3)c(C(=O)NCCCOC)c2)cc1	-2.7	-1.4
O=C1c2ccccc2NC(c2ccco2)N1CC(F)(F)F (configuration not stated)	1.8	2.6
CCOC(=O)c1ccc(NC(=O)N2CCN(C(=O)c3cc4ccsc4n3Cc3ccccc3C)CC2C)cc1 (configuration not stated)	-2.6	0.1
CC(=O)c1cccc(NC(=O)C2COc3ccccc3O2)c1 (configuration not stated)	9.7	2.2
O=C(C1CCCC1)N(Cc1nccn1Cc1ccccc1Cl)CC1CC1	-4.0	2.3
C=CCN(C(=O)CCn1nc2ccccn2c1=O)c1ccccc1	1.9	1.8
COc1ccc(Cc2nc3c(c(N4CCOCC4)n2)CN(C(=O)c2ccccc2Br)CC3)cc1	9.7	12.9
Cc1ccc2oc(-c3nccn3CCSc3nncn3C)c(C)c2c1	5.1	1.4
COc1cc(OC)cc(C(=O)N2CCc3nc(-c4ccccc4)nc(N4CCCCC4)c3C2)c1	13.8	21.7
Cc1csc(SCc2cc(=O)c(OC(=O)c3cc([N+](=O)[O-])ccc3Cl)co2)n1	-1.4	-4.4
C=CCn1c(=O)c(C(=O)NCc2cccnc2)c(O)c2ccccc21	12.1	7.2
Cc1c(C(C)NC(=O)c2ccc(OC3CCN(CC(C)(C)C)CC3)c(Cl)c2)cnn1C (configuration not stated)	11.4	2.5
CC1(C)CC2CC(C)(CN2C(=O)COC(=O)Cn2[nH]c(=O)ccc2=O)C1 (configuration not stated)	-1.4	-4.5
CCOC(=O)C1(CCCc2ccccc2)CCN(C(=O)C2=NNC(=O)CC2)CC1	16.1	3.2
COc1ccccc1CN(CCc1c[nH]c2ccccc12)C(=O)CN(C(=O)c1ccc(C)c([N+](=O)[O-])c1)C(C)C	21.8	32.2

Grouped by structure: the entries above with a thiophene ring, fused or not.
SMILES	NPYLR7 agonist	NPYLR7 agonist max-min
C=CCn1c(SCC(=O)Nc2cc(OC)ccc2OC)nc2sc3c(c2c1=O)CCCC3	-1.1	-6.9
N#CCCn1cc(C=NNC(N)=S)c(-c2cccs2)n1	-0.8	54.7
COCCN(Cc1ccc(C(O)(c2cccc(F)c2)c2cccc(F)c2)o1)Cc1cccs1	-9.8	-1.9
O=c1[nH]c(-c2cccc(Cl)c2)nc2sc3c(c12)CCCC3	0.5&2.0	0.3&7.6
CC(C)CN(C(=O)c1ccc(-c2cccs2)[nH]c1=O)C1CCCCC1	-1.9	-0.7
CCN(CC1CCCO1)C(=O)CN(C)C(=O)c1cccs1 (configuration not stated)	1.2	0.7
Cc1c(C(=O)Nc2cccc(S(=O)(=O)N3CCOCC3)c2)sc2nc3n(c(=O)c12)CCC3	-3.7	-4.5
CCOC(=O)c1ccc(NC(=O)N2CCN(C(=O)c3cc4ccsc4n3Cc3ccccc3C)CC2C)cc1 (configuration not stated)	-2.6	0.1
